eIF4H FP inh – human eIF4H binding inhibitors, primary screen, translation initiation inhibitor project, biochemical, uHTS, fluorescence polarization. inhibition, % at 35 µM. eIF4H fluorescence polarization binding assay. Eukaryotic translation initiation factor 4H (Homo sapiens), Q15056. actives 0.94% (n = 290,000);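 active = 50% or more with normal probe brightness, or confirmed in later tests; inconclusive = above 50% with abnormal brightness, or retests that disagree; inactive = below 50% or failed in later tests; about a fifth of its hits are not listed in these tables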;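 note: calls also rest on retests at 20 µM and on dose response follow-up; 0% = protein and probe with vehicle and 100% = probe without protein; strong numbers were not always called active; many hits fall short of the cut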
UUG fidelity – modulators of yeast start codon fidelity, primary screen, whole organism, S. cerevisiae, single point, plate reader. S. cerevisiae UUG-firefly luciferase reporter, luminescence/redox ratio. activity score, % at 18.7 µM. actives 0.13% (n = 350,000). AID 602363, 2012;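 active = replicate mean at a twofold rise or more, about +100% in these data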;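 note: firefly luciferase made from a UUG start codon reports start codon fidelity; reporter light over untreated wells divided by growth signal over untreated wells; some hits fall short of that in this replicate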
Env fusion inh – inhibitors of HIV-1 Env-driven cell-cell fusion, primary screen, HeLa-JRFL effector, CEM21 target cells, luciferase; inhibition, % at 12.3 µM; actives 1.1% (n = 360,000);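 active = mean replicate inhibition score of at least 50 and every replicate individually at or above 50; inconclusive = only one of the two criteria met; inactive = mean below 50 and not all replicates reaching 50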;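 note: 0% = plate neutral controls and 100% = maraviroc near 300 nM; one replicate is shown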
MT1-MMP act inh – blockers of MT1-MMP proenzyme processing, primary screen, HT1080 RFP-PRO-GFP cells, GFP/RFP fluorescence; Matrix metalloproteinase-14 (Homo sapiens), P50281; actives 0.061% (n = 360,000); GFP/RFP ratio fluorescence, overnight; percent of plate control window, DMSO zero; GFP/RFP ratio change, % at 20 µM;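 active = GFP/RFP ratio change of at least 30% with cell ATP level not reduced by more than half and red fluorescence within 50% of control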; note: strong numbers were not always called active
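Compound: 20 µM single dose, 1% DMSO / System: HT1080 RFP-PRO-GFP cells / Controls: DMSO and RFP-L50D-GFP cell wells / Read-out basis: GFP/RFP fluorescence ratio / Schedule: overnight compound exposure at 37 °C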
CSC inhib – cancer stem cell viability inhibitors, primary screen, luminescence | cancer stem cell-like cells viability | actives 1.1% (n = 300,000) | inhibition, % at 7.5 µM;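 active = mean at 75% or more and at least half the replicates too; inconclusive = mean and replicates disagree; tested in HMLE shEcad cells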;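 note: 0% = median of negative and 100% = median of positive control wells; the first replicate is given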
Rce1 inhib – yeast Rce1p protease inhibitors, primary screen, biochemical, fluorescence, cell-free homogeneous. CAAX prenyl protease 2 (Saccharomyces cerevisiae (strain ATCC 204508 / S288c)), Q03530. yeast membranes, quenched prenylated peptide cleavage fluorescence. calls only. actives 0.27% (n = 290,000);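 active = fall in fluorescence gain of 50% or more versus controls, with final raw signal at or below 3038400; inconclusive = same 50% fall but final raw signal above 3038400; inactive = fall in fluorescence gain under 50%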;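 note: plate controls were neutral control wells for no effect and wells lacking membranes for full effect; tested at 10 µM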
Target sequence (Q03530 whole entry, looked up): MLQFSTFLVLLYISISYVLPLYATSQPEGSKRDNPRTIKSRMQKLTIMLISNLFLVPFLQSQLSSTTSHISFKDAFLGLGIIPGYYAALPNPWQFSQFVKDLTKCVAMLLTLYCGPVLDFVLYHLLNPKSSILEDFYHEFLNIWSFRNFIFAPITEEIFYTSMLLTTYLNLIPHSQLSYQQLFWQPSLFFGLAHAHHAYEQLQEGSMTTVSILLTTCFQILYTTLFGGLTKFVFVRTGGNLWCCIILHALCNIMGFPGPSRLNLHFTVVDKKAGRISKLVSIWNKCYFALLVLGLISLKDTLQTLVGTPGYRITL
PABP FP inh – PABP poly(A) RNA binding inhibitors, primary screen, biochemical, fluorescence polarization, uHTS. actives 1% (n = 290,000). inhibition, % at 35 µM. AID 2014, 2009. Polyadenylate-binding protein 1 (Homo sapiens), P11940;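 active = 50% or more with normal probe brightness, or confirmed in later tests; inconclusive = above 50% with abnormal brightness, or retests that disagree; inactive = below 50% or failed in later tests; about a fifth of its hits are not listed in these tables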;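 note: calls also rest on retests at 20 µM and on dose response follow-up; controls were probe without protein and protein plus probe with vehicle; some compounds called inactive have numbers as strong as hits; many hits fall short of the cut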
Target sequence (P11940 whole entry, looked up): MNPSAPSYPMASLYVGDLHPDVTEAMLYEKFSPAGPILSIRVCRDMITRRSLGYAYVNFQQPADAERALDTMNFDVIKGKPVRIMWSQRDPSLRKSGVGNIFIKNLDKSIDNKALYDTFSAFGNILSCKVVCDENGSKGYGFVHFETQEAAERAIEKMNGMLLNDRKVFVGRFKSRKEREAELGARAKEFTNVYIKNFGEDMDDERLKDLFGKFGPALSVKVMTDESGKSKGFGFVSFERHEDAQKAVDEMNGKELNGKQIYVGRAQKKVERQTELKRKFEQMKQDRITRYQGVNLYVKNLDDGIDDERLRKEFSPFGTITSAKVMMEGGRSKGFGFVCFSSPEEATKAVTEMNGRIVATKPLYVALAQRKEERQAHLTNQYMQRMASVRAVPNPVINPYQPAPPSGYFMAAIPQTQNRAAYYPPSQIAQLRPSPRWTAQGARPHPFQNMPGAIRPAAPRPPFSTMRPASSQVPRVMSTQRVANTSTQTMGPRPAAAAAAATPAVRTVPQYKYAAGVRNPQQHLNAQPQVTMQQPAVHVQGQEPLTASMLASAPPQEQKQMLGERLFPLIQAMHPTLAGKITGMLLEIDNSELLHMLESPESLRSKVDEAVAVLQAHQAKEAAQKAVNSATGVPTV
eIF4H FP inh retest – also measured in eIF4H FP inh; calls as there; inhibition, %; compound at 20 µM; confirmation average;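 mean of two retest wells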
PABP FP inh retest – further read-out of PABP FP inh, marked with its call; inhibition, %; compound at 20 µM; confirmation repeats;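 mean of two retest wells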
MT1-MMP act inh RFP – recorded beside MT1-MMP act inh, whose call it bears; RFP signal change, %; measured here: RFP expression control read;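 0 = vehicle wells; hits needed this value within 50% of zero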
The depositor's hits bear a star; i = inactive; ? = inconclusive; . = not tested or not shown; + = active, no number; [ ] = another dose, or the depositor's remark.

SMILES | eIF4H FP inh | UUG fidelity | Env fusion inh | MT1-MMP act inh | MT1-MMP act inh RFP | CSC inhib | Rce1 inhib | PABP FP inh | others
COc1ccc(NS(=O)(=O)c2ccc(C)c(C(=O)NCC(c3cccs3)N3CCOCC3)c2)cc1 (stereo not given) | . | . | . | 3 | 2 | 3 | i | .
O=C(NCC1CCCO1)c1cc2ccccc2o1 (stereo not given) | 2 | -4 | -15 | . | . | 2 | i | -3
COc1cccc(-c2cc(C(=O)O)[nH]n2)c1 | -9 | 2 | . | 5 | 6 | 9 | i | -2
CC1CCCN(S(=O)(=O)c2ccc3c(c2)n(C)c(=O)c(=O)n3C)C1 (stereo not given) | 1 | -12 | 12 | 7 | 4 | 2 | i | 10
S=C(c1ccc(N2CCOCC2)cc1)N1CCCCC1 | 1 | -16 | . | 8 | 4 | 7 | i | -4
CCCC1CCC(C(=O)Nn2c(C)nc3ccccc3c2=O)CC1 (stereo not given) | -10 | -12 | . | 2 | -4 | 0 | i | 1
CC(C)Oc1ccccc1OC1(C)CCN(Cc2ccc(OC(F)(F)F)cc2)C1 (stereo not given) | . | -14 | 40 | 0 | 0 | . | . | .
C#CCOCCOCCOCCNc1nc(N2CCN(C(=O)[C@H]([C@@H](C)CC)n3cc([C@@H](N)CC(C)C)nn3)CC2)nc(N2CCN(C(=O)[C@H](Cc3cc4ccccc4[nH]3)n3cc([C@@H](N)CC(C)C)nn3)CC2)n1 | 36 | . | . | . | . | . | i | ?
O=c1c(Cc2ccc(Cl)cc2)c(O)ccn1Cc1cccs1 | 0 | . | -12 | -6 | -3 | -12 | i | -3
COc1ccc2oc(=O)c(C(=O)NCCc3ccc(OC)c(OC)c3)cc2c1 | -11 | -8 | 7 | -2 | -9 | 0 | i | 0
CCc1cccc(OCC(O)Cn2c(N3CCCCC3)nc3c2c(=O)[nH]c(=O)n3C)c1 (stereo not given) | -2 | -11 | 14 | 1 | -4 | -21 | i | -13
COC(=O)c1ccc(C)c(NC(=O)CSc2sc3c(O)cc(=O)[nH]c3c2C#N)c1 | 49 | -10 | 2 | -4 | 2 | -3 | i | 34
COC(=O)Cc1csc(Nc2ccc(Cl)cc2)n1 | 2 | . | -21 | 3 | 3 | -9 | i | 7
COc1cc(/C=N/NC(=O)c2cc(-c3ccccc3C)nc3ccccc23)cc(OC)c1O | . | -14 | 3 | -1 | 3 | -12 | i | .
CCOC(=O)Cn1c(-c2cccnc2)nc(-c2ccccc2)c1-c1ccccc1 | -8 | -10 | -5 | -2 | -3 | -3 | i | 4
Cc1ccc(C2=NN(CCC(=O)NCc3ccc4c(c3)OCO4)C(=O)CC2)cc1 | -9 | . | -5 | 3 | 1 | 6 | i | -13
CCC(OC(=O)CC1Sc2ccccc2NC1=O)C(=O)NCC1CCCO1 (stereo not given) | 1 | . | . | 1 | 1 | . | i | 5
CCOC(=O)C1=C(CSc2nc(C)ccc2C#N)OC(N)=C(C#N)C1c1cccc(OC)c1OC (stereo not given) | 16 | -3 | . | -68 | 5 | -1 | i | 24
COc1ccc(-c2oc3ccc(N4CCOCC4)cc3c2C#Cc2ccc(N)cc2)cc1 | . | -13 | -21 | 1 | 1 | -7 | + | .
CC1Cc2ccccc2N1C(=O)COC(=O)CCc1nc2ccccc2c(=O)[nH]1 (stereo not given) | -2 | 7 | 6 | -2 | 0 | -3 | i | -1
Cc1cc(=O)[nH]c(N2CCN(Cc3ccccc3)CC2)n1 | -12 | -13 | -57 | -1 | 3 | -7 | i | -6
CCN(CC(=O)Nc1ccccc1C(F)(F)F)C(=O)c1ccc2c(=O)n3c(nc2c1)CCC3 | . | -3 | 2 | -3 | 3 | -13 | . | .
COc1cc(/C=N/NC(=O)Cc2ccccc2)cc([N+](=O)[O-])c1O | -9 | -23 | -30 | 5 | 2 | -14 | i | 8
O=C(NCc1ccccc1)NC1CCCCC1 | 5 | -19 | . | 2 | -3 | -14 | i | -2
CC(C)CCN(C(=O)COc1ccc(C#N)cc1)c1c(N)n(Cc2ccccc2)c(=O)[nH]c1=O | -7 | . | . | . | . | 2 | i | 12

Brought forward from above: 4 entries, then new ones.
SMILES | eIF4H FP inh | UUG fidelity | Env fusion inh | MT1-MMP act inh | MT1-MMP act inh RFP | CSC inhib | Rce1 inhib | PABP FP inh | others
CCN(CC(=O)Nc1ccccc1C(F)(F)F)C(=O)c1ccc2c(=O)n3c(nc2c1)CCC3 | . | -3 | 2 | -3 | 3 | -13 | . | .
COc1cc(/C=N/NC(=O)Cc2ccccc2)cc([N+](=O)[O-])c1O | -9 | -23 | -30 | 5 | 2 | -14 | i | 8
O=C(NCc1ccccc1)NC1CCCCC1 | 5 | -19 | . | 2 | -3 | -14 | i | -2
CC(C)CCN(C(=O)COc1ccc(C#N)cc1)c1c(N)n(Cc2ccccc2)c(=O)[nH]c1=O | -7 | . | . | . | . | 2 | i | 12
COc1ccc(C2C3(C#N)C(N)=NC(OC)(OC)C23C#N)cc1 (stereo not given) | 74 | . | -9 | -1 | -6 | 3 | i | 3 | eIF4H FP inh retest=6;PABP FP inh retest=3
CCN(CC)CCCOc1ccc(Cl)c(Cl)c1 | 4 | . | 19 | 2 | 6 | -13 | i | 10
COc1ccc(-c2ccc(CCC(=O)O)n2NC(=O)c2ccc(C(C)(C)C)cc2)cc1 | -3 | . | 12 | 1 | -2 | -3 | i | -3
CN(C)c1ncnc(N(C)C)c1[N+](=O)[O-] | -6 | . | -2 | 4 | 5 | 8 | i | 6
COc1ccc(C2=NN3C(C2)c2ccccc2OC3c2cccs2)cc1 (stereo not given) | -10 | . | -79 | -1 | -2 | 11 | i | 9
Cc1nc2ccccc2n1CC(=O)OCC(=O)NCCc1ccccc1 | -3 | -9 | . | 0 | 2 | 0 | i | 4
Cc1ccc(S(=O)(=O)Nc2cc(C(F)(F)F)ccc2N2CCOCC2)cc1C | -13 | . | 27 | -4 | -7 | 5 | i | 0
Cc1ccc(/C=N/NC(=O)CN2CCN(Cc3ccccc3Cl)CC2)o1 | 0 | . | 16 | -4 | 0 | 8 | i | -4
Nc1cccc(-c2ccc(CO)o2)c1 | -4 | -16 | -28 | 2 | 2 | -3 | i | 10
CCc1nn(CC(=O)NCCN2CCN(C)CC2)c(=O)c2cc3c(OC)cccc3n12 | -4 | -18 | -7 | 5 | 4 | 12 | i | 2
O=C1NC2(CCCc3ccccc32)C(=O)N1CCOc1ccc(Br)cc1 (stereo not given) | -7 | -8 | . | 0 | -6 | 8 | i | 0
COc1ccc(CCC(=O)O)c(O)c1 | 28 | 3 | . | 2 | 6 | -6 | i | 12
CN[C@@H](C)C(=O)NC[C@H]1O[C@@H](n2cnc3c(=O)[nH]c(N)nc32)[C@H](O)[C@@H]1O | . | -15 | -66 | -1 | 0 | . | . | .
O=C1CSC(c2cccc([N+](=O)[O-])c2)N1CCc1ccccc1 (stereo not given) | 18 | -2 | 10 | -2 | -4 | -12 | i | 6
CCCCc1nc2ccc(F)cc2cc1C | . | -9 | 8 | 3 | 6 | . | . | .
c1ccc2c(-c3csc(-c4ccncc4)n3)c[nH]c2c1 | -1 | -23 | -145 | -7 | -8 | 47 | i | 5
COc1ccc(N2CCN(C(=O)NCc3ccc(C)cc3)CC2)cc1 | -9 | 12 | 12 | 1 | -1 | 1 | i | -2
Cc1onc(-c2ccccc2)c1C(=O)NC(=S)NNC(=O)c1ccccc1O | 7 | . | 49 | 3 | -16 | 9 | i | -1
CCOC(=O)CSc1nc(N2CCOCC2)c2c(c1C#N)CC(C)(C)OC2 | -1 | -4 | 4 | -2 | -2 | -11 | i | -5
Cc1ccc(Cn2ncc(Cl)c(Cl)c2=O)cc1 | 4 | 1 | 9 | -5 | -3 | -8 | i | -6
CC(=O)Nc1cccc(NC(=O)CSc2nccn2Cc2ccco2)c1 | -1 | -11 | 18 | 6 | -8 | 10 | i | -4
CCOc1ccc(C2C(C#N)=C(N)Oc3cc(O)ccc32)cc1OCC (stereo not given) | 11 | -11 | -5 | -8 | -7 | 37 | i | 7
COc1cc(C2c3c(-c4cc(C)cc(C)c4O)n[nH]c3C(=O)N2CCCO)cc(OC)c1OC (stereo not given) | -10 | 2 | -13 | 5 | 1 | -18 | . | -6
O=[N+]([O-])c1ccc(SCc2c(F)cccc2Cl)nc1 | 2 | . | 0 | -2 | -4 | 4 | . | 9
NCCCCCc1nnc(SC/C=C/c2ccccc2)o1 | -11 | 9 | -8 | -4 | -1 | -17 | i | 5

The list continues.
SMILES | eIF4H FP inh | UUG fidelity | Env fusion inh | MT1-MMP act inh | MT1-MMP act inh RFP | CSC inhib | Rce1 inhib | PABP FP inh | others
COc1ccc(NC(=O)c2sc(N)nc2-c2ccccc2)cc1 | -1 | -20 | 20 | 0 | 5 | -13 | i | 7
O=C(COc1cccc(F)c1)Oc1ccc(C(=O)c2ccccc2)cc1 | 6 | . | 3 | -3 | -5 | 11 | i | -6
O=C(Nc1ccc(Cl)cc1)N1CCN(c2ccc3nnc(-c4ccc(F)cc4)n3n2)CC1 | 5 | -15 | 11 | -4 | -18 | 46 | i | 14
Cc1ccc(Cl)cc1N(CC(=O)N1CCCCCC1)S(C)(=O)=O | -2 | -15 | -13 | 1 | 4 | -6 | i | 2
Nn1c(SCC(=O)Nc2ccc3c(c2)OCO3)nnc1-c1ccc(Cl)cc1 | -8 | -21 | -63 | 7 | -1 | 6 | i | -6
O=C(O)c1csc(-c2cccc(Cl)c2)n1 | -6 | -13 | -4 | -6 | -1 | -5 | i | 12
COc1ccccc1NC(=O)CSc1nnc(Cc2cc(=O)[nH]c(=O)[nH]2)n1-c1ccccc1 | -3 | -6 | -6 | -4 | -3 | -1 | i | -2
CCOc1ccc(Cc2nnc(SCC(N)=O)n2C)cc1 | 4 | -13 | -66 | 3 | 7 | . | i | 18
COc1ccc(Cc2nc3ccc(C(=O)NCCc4cccc(C)n4)cc3o2)cc1 | . | -19 | -13 | -5 | -7 | 0 | i | .
CC(C)NC(=O)N[C@H]1CC[C@H](CC(=O)NCc2ccc(Oc3ccccc3)cc2)O[C@@H]1CO | . | 33 | -16[16.7 µM] | 10 | -5 | . | . | .
COc1ccc2occ(C(=O)c3ccc(N)cc3)c2c1 | -4 | 3 | -36 | -6 | -10 | 3 | i | -1
COc1ccc(NC(=O)N(Cc2cc3cc(OC)ccc3[nH]c2=O)CC2CCCO2)cc1 (stereo not given) | -4 | 14 | . | 1 | -1 | 4 | i | 1
CC(=O)Nc1ccc(S(=O)(=O)Nc2ccc(S(=O)(=O)N3CCCC3)cc2)cc1 | 0 | -16 | . | 4 | 8 | -8 | i | -7
CN(C)c1cccc(C(=O)NNC(=O)/C=C/c2cccs2)c1 | . | -11 | -21 | -2 | -3 | 3 | . | .
COc1cc(OC)cc(C(=O)N[C@H](C(=O)NC2=NCCS2)C(C)C)c1 | . | -4 | 0 | -3 | 0 | -12 | . | .

A portion of the library (hit frequency here may not be typical).
